Screening data from PubChem BioAssay.
CFTR F508del = total CFTR protein upregulators, primary screen, cell-based, HeLa F508del-CFTR, immunofluorescence, viability (AID 1224863); HeLa F508del-CFTR, immunofluorescence total CFTR, 24 h; by the record results were divided by relative cell number; some inactives read as strong as hits; calls, or highest fold increase where a dose series was run; 0.1% of 10,000 active; in the data nearly all actives have a first-pass fold increase above 1.5; a few of its hits are not listed in these tables;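 note: total CFTR protein by anti-CFTR immunofluorescence in fixed cells; first pass at 25 µM or 10 µg/mL by library and series up to twice that; 1 = untreated cells; first-pass hits also needed half or more of the cells alive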
CFTR F508del fold 25 µM = second read-out of CFTR F508del, no call of its own (marks repeat the call); fold increase; measured here: primary screen single dose 25 uM; library dosed in µM
CFTR F508del fold 10 ug/mL = second read-out of CFTR F508del, no call of its own (marks repeat the call); fold increase; measured here: primary screen 10 ug/mL
CFTR F508del viability 25 µM = recorded beside CFTR F508del, whose call it bears; viability, %; measured here: primary viability 25 uM; library dosed in µM;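 0% = killed and 100% = untreated cells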
CFTR F508del viability 10 ug/mL = recorded beside CFTR F508del, whose call it bears; viability, %; measured here: primary viability 10 ug/mL;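 0% = killed and 100% = untreated cells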
* = called active by the depositor; i = inactive; / = not tested or not shown; & = joins results of further samples.

Sample of the layout:
SMILES | CFTR F508del | CFTR F508del fold 10 ug/mL | CFTR F508del viability 10 ug/mL | others
CCC(C)(C)NCC(=O)N1c2ccccc2NC(=O)C1(C)C | i | 1.1 | 93
O=C(CSc1nnnn1C1CCCC1)c1sccc1Br | i | 1 | 106

This part in full, previewed entries included:
SMILES | CFTR F508del | CFTR F508del fold 10 ug/mL | CFTR F508del viability 10 ug/mL | others
CCC(C)(C)NCC(=O)N1c2ccccc2NC(=O)C1(C)C | i | 1.1 | 93
O=C(CSc1nnnn1C1CCCC1)c1sccc1Br | i | 1 | 106
N#C/C(=C/c1cc2c(cc1[N+](=O)[O-])OCO2)c1nnc2n1CCCCC2 | i | 0.99 | 107
CCOC(=O)NCCC(=O)NCC(CC(C)C)N1CCOCC1 (centres undefined) | i | 1.1 | 105
COc1ccc(OC)c(CN(C2CC2)S(=O)(=O)c2cc(Cl)ccc2Cl)c1 | i | 1 | 84
CN1CCN(c2c(F)cc3c(=O)c(C(=O)O)cn(CCF)c3c2F)CC1 | i | / | / | CFTR F508del fold 25 µM=1.1&0.99;CFTR F508del viability 25 µM=91&90
COc1cc(NS(C)(=O)=O)ccc1Cc1c2ccccc2nc2ccccc12 | i | / | / | CFTR F508del fold 25 µM=0.58;CFTR F508del viability 25 µM=3
CCONC(=O)C1CC2CCC(C1)C21SCCS1 (centres undefined) | i | 1 | 99
NCCN1CCc2ccccc21 | i | 1.1 | 85
CC(=O)c1c(C)[nH]c(C(=O)COC(=O)c2cc(C)n(C3CC3)c2C)c1C | i | 0.94 | 88

Part of the list above in order of molar mass, high to low.
SMILES | CFTR F508del | CFTR F508del fold 10 ug/mL | CFTR F508del viability 10 ug/mL | others
COc1ccc(OC)c(CN(C2CC2)S(=O)(=O)c2cc(Cl)ccc2Cl)c1 | i | 1 | 84
CN1CCN(c2c(F)cc3c(=O)c(C(=O)O)cn(CCF)c3c2F)CC1 | i | / | / | CFTR F508del fold 25 µM=1.1&0.99;CFTR F508del viability 25 µM=91&90
CC(=O)c1c(C)[nH]c(C(=O)COC(=O)c2cc(C)n(C3CC3)c2C)c1C | i | 0.94 | 88

Next records follow:
SMILES | CFTR F508del | CFTR F508del fold 10 ug/mL | CFTR F508del viability 10 ug/mL | others
CC(C)(CNS(=O)(=O)c1ccc(Cl)cc1F)N1CCOCC1 | i | 1 | 103
FC(F)(F)c1ccc(NCc2ccccc2CN2CCCC2)nc1 | i | 0.89 | 90
O=C(NCC1CCN(c2ccccc2)C1)C1CC(=O)N(c2cccc(Br)c2)C1 (centres undefined) | i | 1.1 | 94
Cn1c(-c2ccc(F)cc2)nn(CN2CCOCC2)c1=S | i | 1 | 100
O=C(NCCc1cccnc1)NCC1CC1 | i | 1.1 | 99
CSc1ncccc1C(=O)OCC(=O)/C=C1\N(C)c2ccccc2C1(C)C | i | 0.98 | 98
CN(C)C(=O)C1CN(C(=O)c2cc(S(=O)(=O)N3CCCC3)cn2C)c2ccccc2O1 (centres undefined) | i | 1.1 | 98
N#C/C(=C/c1c[nH]c2ccccc12)c1ccccn1 | i | 1 | 79
Clc1cccc(-c2cnc(COn3nnc4ccc(Cl)cc43)o2)c1 | i | 1.1 | 80
CCN(CC)S(=O)(=O)N1CCC(c2nc3ccccc3s2)CC1 | i | 0.88 | 82
CCOC(=O)c1sc(N)c(C#N)c1CSc1nc(C)nc2sc(C(=O)OCC)c(C)c12 | i | 1.1 | 93
CC1=C(C(=O)N(C)C)C(c2cc(Br)cs2)NC(=S)N1C (centres undefined) | i | 1 | 85
Clc1ccc(-n2cc(CNCC(C3CCOC3)N3CCOCC3)cn2)cc1 (centres undefined) | i | 1 | 94
O=C(NCCC12CC3CC(CC(C3)C1)C2)c1cnc2sccn2c1=O | i | 1 | 95
CC(=O)c1c[nH]c(C(=O)NC(C)CCCC(C)C)c1 (centres undefined) | i | 0.96 | 93
O=C(NCCSC1CCCC1)c1cc(C2CC2)on1 | i | 0.99 | 86
CCSc1nnc(NC(=O)C2CC2(Cl)Cl)s1 (centres undefined) | i | 1 | 83
O=S(=O)(NCc1ccnc(N2CCCC2)c1)c1cc(Cl)cc(Cl)c1 | i | 0.88 | 93
Oc1c(Br)cc(Br)c2cccnc12 | i | 1 | 96 | CFTR F508del fold 25 µM=1;CFTR F508del viability 25 µM=78
COc1ccc(OC)c2c1CN(c1nc(CN3CCOCC3)nc3sc4c(c13)CCCC4)CC2O (centres undefined) | i | 1 | 76

Two entries picked at random from the list so far:
SMILES | CFTR F508del | CFTR F508del fold 10 ug/mL | CFTR F508del viability 10 ug/mL | others
O=S(=O)(NCc1ccnc(N2CCCC2)c1)c1cc(Cl)cc(Cl)c1 | i | 0.88 | 93
O=C(NCCC12CC3CC(CC(C3)C1)C2)c1cnc2sccn2c1=O | i | 1 | 95

Further entries follow.
SMILES | CFTR F508del | CFTR F508del fold 10 ug/mL | CFTR F508del viability 10 ug/mL | others
C[C@]12C=CC(=O)C=C1CCC1C2[C@@H](O)C[C@@]2(C)C1CC[C@]2(O)C(=O)CO (some centres undefined) | i | / | / | CFTR F508del fold 25 µM=1.1;CFTR F508del viability 25 µM=87
CCCCC1CCC(COC(=O)C2=NN(C3CCS(=O)(=O)C3)C(=O)CC2)CC1 (centres undefined) | i | 0.88 | 84
Cc1sc2ncnc(Sc3nnc(C4CC4)o3)c2c1C | i | 1 | 98
COCCNc1nnc(Sc2nc3cc(C)nn3c3ccccc23)s1 | i | 0.82 | 75
Cc1cc(NS(=O)(=O)c2ccc(N)cc2)no1 | i | / | / | CFTR F508del fold 25 µM=1&1.1;CFTR F508del viability 25 µM=101&90
CC(NS(=O)(=O)c1ccc2c(c1)OCCO2)c1ccc2c(c1)CCCC2 (centres undefined) | i | 0.97 | 74
C#CCNC(=O)N1CCN(c2ccc([N+](=O)[O-])cc2)CC1 | i | 0.96 | 93
NC(=O)N1CC(C(=O)O)Oc2ccccc21 (centres undefined) | i | 1 | 90
CNCc1cccc2ccccc12 | i | 1.1 | 105
O=S1(=O)CCC(N(Cc2cccs2)S(=O)(=O)c2cccs2)C1 (centres undefined) | i | 0.93 | 90
CS(=O)(=O)c1ccc(NC2CCCCC2)c(S(C)(=O)=O)c1 | i | 1.1 | 101
O=C(Nc1nc2ccccc2s1)N1CCCC1c1nnc2ccccn12 (centres undefined) | i | 1.1 | 101
CC(CCc1ccc(O)cc1)NCC(O)c1ccc(O)cc1 (centres undefined) | i | / | / | CFTR F508del fold 25 µM=1.1;CFTR F508del viability 25 µM=84
CC1CCC2(CC1)NC(=O)N(CN1CCC(c3nnc4ccccn34)CC1)C2=O (centres undefined) | i | 0.93 | 80
O=c1c2ccccc2nnn1COc1ccccc1Cl | i | 0.98 | 116
Cc1nc(Sc2nnnn2C)c2c(-c3cccs3)csc2n1 | i | 0.62 | 55
O=C1C(O)=C(O)C(=O)C(O)=C1O | i | / | / | CFTR F508del fold 25 µM=1.2;CFTR F508del viability 25 µM=114
CC1CCc2c(sc(NC(=O)CN3C(=O)NC4(CCCCC4)C3=O)c2C(N)=O)C1 (centres undefined) | i | 1 | 106
CN(c1ccccc1)c1ccc(/C=C2\CCc3ccccc3C2=O)cc1[N+](=O)[O-] | i | 1.1 | 84
COc1cc(CNCc2cc(Cl)c3c(c2)OCO3)cc(OC)c1OC | i | 0.96 | 106
Cc1cc(C)n(CCCNC(=O)C2CCC2)n1 | i | 1.1 | 98
c1ccc(N2CCC(CNc3ccc4nnnn4n3)C2)cc1 (centres undefined) | i | 1 | 82
O=C(O)C=C(C1CC1)C1CC1 | i | 1 | 107
Cc1ccc(/C=C2\N=C(C(C)(C)C)OC2=O)s1 | i | 1 | 108
NC(=O)C1Cc2ccccc2CN1CN1C(=O)C2CC=CCC2C1=O (centres undefined) | i | 1.1 | 113
Cn1ccnc1SCCC(=O)O | i | 0.92 | 87
Cc1ccc(C)c(S(=O)(=O)C2(C(=O)OCc3cn4ccccc4c3C#N)CCCC2)c1 | 1.4 | 2.2 | 72
CN(C1CCN(C(=O)OC(C)(C)C)CC1)S(=O)(=O)c1ccc(F)c(F)c1 | i | 0.96 | 93
O=C(NC1CC2CC1C1CCCC21)c1ccc(C(F)(F)F)nc1 (centres undefined) | i | 1.1 | 81
O=C1OC(c2cccc(F)c2)=N/C1=C/C1=Cc2ccccc2OC1 | i | 1.1 | 113
O=C(Nc1ccnn1C1CCCC1)C1CCCCC1 | i | 0.89 | 92
Cc1nnc(C(C)C)n1C1CC2CCC(C1)N2CC[C@H](NC(=O)C1CCC(F)(F)CC1)c1ccccc1 (some centres undefined) | i | / | / | CFTR F508del fold 25 µM=0.92;CFTR F508del viability 25 µM=110
Nc1ccc(OC2CCCC2)c(Cl)c1 | i | 0.94 | 95
CC1(C)NC(=O)N(CCCSc2nnnn2Cc2ccco2)C1=O | i | 0.96 | 86
Cn1ccnc1COc1ccc(N)cc1 | i | 1.2 | 98
S=c1[nH]nc(N2CCCCC2)n1C1CC1 | i | 1.1 | 101
Nc1ccc(S(=O)(=O)c2ccc(N)cc2)cc1 | i | / | / | CFTR F508del fold 25 µM=1.2;CFTR F508del viability 25 µM=103
O=c1c2ccsc2ncn1CCS(=O)(=O)NC1CCCCC1 | i | 0.96 | 93
Fc1ccc(F)c(C2=NNC(=Nc3ccccc3)SC2)c1 | i | 0.84 | 83
COc1ccc(S(=O)(=O)Nc2cc(S(C)(=O)=O)ccc2F)cc1 | i | 1 | 96
CC(=O)c1c(C)[nH]c(C(=O)N2CCCC(C(F)(F)F)C2)c1C (centres undefined) | i | 1 | 95
CCOC(=O)c1c(C)[nH]c(C(=O)NC(C)(C)C)c1C | i | 0.97 | 100
O=S(=O)(Nc1ccc(N2CCCS2(=O)=O)cc1)c1cc(Cl)cc(Cl)c1 | i | 0.99 | 107
Cc1cc2nc(N3CCc4ccccc4C3)c3ccccc3n2n1 | i | 0.9 | 80
Cc1nn(C/C=C/c2ccccc2)c(C)c1S(=O)(=O)N1CCOCC1 | i | 0.95 | 90
O=C1Nc2ccc(Cl)cc2[C@@](C#CC2CC2)(C(F)(F)F)O1 | i | / | / | CFTR F508del fold 25 µM=0.75;CFTR F508del viability 25 µM=56
O=C(COc1ccc2c(c1)CCC2)N(C1CCCC1)C1CCS(=O)(=O)C1 (centres undefined) | i | 0.97 | 92
N#Cc1ncn(CCn2nc3ccccn3c2=O)n1 | i | 1.1 | 90
CC1CN(S(=O)(=O)N2CCN(Cc3ccccc3Br)CC2)CC(C)O1 (centres undefined) | i | 0.87 | 93
Cc1ccc(C(CNS(=O)(=O)CCn2cnc3ccccc32)N2CCOCC2)o1 (centres undefined) | i | 0.99 | 87
The list goes on.
SMILES | CFTR F508del | CFTR F508del fold 10 ug/mL | CFTR F508del viability 10 ug/mL | others
CCOC(=O)C1=C(COC(=O)c2ccccc2OC)NC(=O)NC1C (centres undefined) | i | 0.97 | 84
O=C1CCc2cc(S(=O)(=O)Nc3cc4c(cc3Cl)OCO4)ccc2N1 | i | 1 | 99
O=C(O)c1oc2ccccc2c1CSCc1c(C(=O)O)oc2ccccc12 | i | 1.1 | 93
CC(C)(C)CC(C)(C)NS(=O)(=O)Cc1ccc(C#N)cc1 | i | 0.98 | 93
NS(=O)(=O)c1cc2c(cc1C(F)(F)F)NCNS2(=O)=O | i | / | / | CFTR F508del fold 25 µM=1.1;CFTR F508del viability 25 µM=85
CC1(c2ccco2)NC(=O)N(CC(=O)NCCC2=CCCCC2)C1=O (centres undefined) | i | 1.1 | 98
CC(C)(C)c1nc(CN2CCN(c3ccc(C(F)(F)F)cn3)CC2)no1 | i | 0.79 | 73
COc1cc(OC)c(OC)cc1/C=C/C(=O)c1ccc(OC(F)F)c(OC)c1 | i | 0.75 | 66
COc1cc(C(=O)NCc2ccc(OCCN(C)C)cc2)cc(OC)c1OC | i | / | / | CFTR F508del fold 25 µM=1;CFTR F508del viability 25 µM=102
Cc1[nH]c(=S)[nH]c(=O)c1CCC(=O)O | i | 1.1 | 113
N#Cc1ccc(Oc2ccc3nnnn3n2)cc1 | i | 1 | 118
CN(CN1C(=O)c2cccc3cccc1c23)C1CCc2ccccc21 (centres undefined) | i | 1 | 77
CC(=O)Oc1cccc2c1C(=O)c1c(OC(C)=O)cc(C(=O)O)cc1C2=O | i | / | / | CFTR F508del fold 25 µM=1;CFTR F508del viability 25 µM=106
COc1ccc(OC)c(C2CCCN2Cn2nc(-c3ccc(F)cc3)n(C)c2=S)c1 (centres undefined) | i | 1.1 | 96
O=C(NCc1ccccc1)NC1(c2ccc(Br)cc2)CCC1 | i | 0.93 | 74
Cc1cn(-c2cc(NC(=O)c3ccc(C)c(Nc4nccc(-c5cccnc5)n4)c3)cc(C(F)(F)F)c2)cn1 | i | / | / | CFTR F508del fold 25 µM=1.1;CFTR F508del viability 25 µM=47
CN1CCC(=C2c3ccccc3Sc3ccccc32)CC1 | i | / | / | CFTR F508del fold 25 µM=1.1;CFTR F508del viability 25 µM=80
COc1ccc(-c2nc3ccc(C4=NNC(=O)CC4C)cc3[nH]2)cc1 (centres undefined) | i | / | / | CFTR F508del fold 25 µM=0.93;CFTR F508del viability 25 µM=59
CC(=O)Oc1c(C)c(C)c2c(c1C)CCC(C)(CCCC(C)CCCC(C)CCCC(C)C)O2 (centres undefined) | i | / | / | CFTR F508del fold 25 µM=0.97;CFTR F508del viability 25 µM=89
CS(=O)(=O)N1CCN(c2ccc(Br)cc2[N+](=O)[O-])CC1 | i | 0.92 | 103
CCOC(=O)C1=C[C@]2(CC)CCCN3CCc4c(n1c1ccccc41)[C@@H]32 | i | / | / | CFTR F508del fold 25 µM=1.3&1.1;CFTR F508del viability 25 µM=93&89

An excerpt. The share of hits here may be higher or lower than overall.
